High-throughput results (PubChem)
BasE inh: BasE siderophore enzyme inhibitors, primary screen, biochemical, Acinetobacter baumannii ATCC 17978, fluorescence polarization; purified BasE, fluorescence polarization binding displacement; inhibition, % (concentration not given with the values); 84,000 compounds, 0.1% hits;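 active = both replicates above 25% with normal brightness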;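 also: 0% = negative plate control signal and 100% = positive plate control signal; stock transfer was 100 nL into about 30 µL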
KSHV LANA nucl: inhibitors of KSHV LANA-nucleosome binding, primary screen, biochemical, fluorescence polarization, FITC-LANA1-23, chicken nucleosomes | FITC-LANA1-23 / chicken nucleosome fluorescence polarization; stronger effect = lower value | z-score (no concentration beside the values) | 51,000 compounds, 0.3% hits | AID 720717, 2013;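 active = both repeat wells score below -2 in polarization z-score versus plate sample wells, excluding overly bright wells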;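 also: 100 nL library stock added to about 30 µL; numbers are from one replicate; some results filed as inactive read as strong as hits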
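Test system: purified chicken nucleosomes with FITC-labelled LANA N-terminal peptide (1-23); Input: 240 nM purified chicken nucleosomes (480 nM peptide binding sites), final; Medium: TEN-BT buffer, pH 7.5; Timing: 10–45 min, room temperature; Technique: fluorescence polarization, 480 nm excitation, 535 nm parallel and perpendicular emission; Replication: duplicates.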
* marks the source's active call; other numbers are inactive results; . = no result given; & = joins results of further samples.

Preview (three entries):
Values run as follows: BasE inh, KSHV LANA nucl
> CCN(CC)S(=O)(=O)c1ccc(NC(=O)COC(=O)C2=NNC(=O)CC2)cc1
→ -0.5, .
> CC(=O)NCc1ccc(C(=O)CSc2nnc(C3COc4ccccc4O3)n2C)cc1 (configuration not stated)
→ 1.3, .
> Nc1nc(SCC(=O)N2CC(=O)Nc3ccccc32)n[nH]1
→ 1.4, .

The list itself, from the start:
Values run as follows: BasE inh, KSHV LANA nucl
> CCN(CC)S(=O)(=O)c1ccc(NC(=O)COC(=O)C2=NNC(=O)CC2)cc1
→ -0.5, .
> CC(=O)NCc1ccc(C(=O)CSc2nnc(C3COc4ccccc4O3)n2C)cc1 (configuration not stated)
→ 1.3, .
> Nc1nc(SCC(=O)N2CC(=O)Nc3ccccc32)n[nH]1
→ 1.4, .
> C=CCn1c(SC(C)C(N)=O)nnc1C1CCCCC1 (configuration not stated)
→ 1.8, .
> O=C(OCCn1ccnc1)c1ccc(-c2ccccc2)cc1
→ -10, .
> O=C1NC(=O)N(CCC2=CCCCC2)C(=O)/C1=C\c1cc2c3c(c1)CCCN3CCC2
→ 2.5, 3.2
> CCOc1ccc2nc(SCc3nnc(-c4cccs4)o3)sc2c1
→ 2.5, .
> C[C@H](CCC(=O)O)[C@H]1CC[C@H]2[C@@H]3CC[C@@H]4C[C@H](O)CC[C@]4(C)[C@H]3CC[C@]12C
→ -1.4, -0.85
> Cc1ccc(C2=C/C(=C\c3ccccc3C)C(=O)O2)cc1
→ 15, .
> CC(C)n1c(NCc2ccccc2)nc2c1c(=O)[nH]c(=O)n2C
→ -1.0, 0.22
> O=C1/C(=C/c2cccs2)CCSc2ccccc21
→ ., 0.52
> COc1ccc(N=Cc2cn(-c3ccccc3)nc2-c2cc3ccccc3o2)cc1
→ 3.6, -0.43
> CCN(CC)C(=O)C1CCC(=O)N(c2ccc(OC)cc2)C1c1ccc(OC)c(OC)c1 (configuration not stated)
→ 1.6, 0.034
> N#C/C(=C\c1ccncc1)c1ccc(NC(N)=O)cc1
→ 1.1, .
> COc1cccc(NS(=O)(=O)c2cc(OC)ccc2OC)c1
→ 0.5, 0.82

Six compounds picked at random from those above:
Values run as follows: BasE inh, KSHV LANA nucl
> N#C/C(=C\c1ccncc1)c1ccc(NC(N)=O)cc1
→ 1.1, .
> O=C(OCCn1ccnc1)c1ccc(-c2ccccc2)cc1
→ -10, .
> COc1ccc(N=Cc2cn(-c3ccccc3)nc2-c2cc3ccccc3o2)cc1
→ 3.6, -0.43
> C=CCn1c(SC(C)C(N)=O)nnc1C1CCCCC1 (configuration not stated)
→ 1.8, .
> Nc1nc(SCC(=O)N2CC(=O)Nc3ccccc32)n[nH]1
→ 1.4, .
> O=C1/C(=C/c2cccs2)CCSc2ccccc21
→ ., 0.52

Continued:
Values run as follows: BasE inh, KSHV LANA nucl
> O=c1cc(-c2ccc(F)cc2)c2c([nH]1)Oc1c(nc(-c3ccccc3)[nH]c1=O)O2
→ 1.8, -1.3
> CN(C(=O)c1ccccc1)C1CCS(=O)(=O)C1 (configuration not stated)
→ -0.7, 1.1
> O=c1cc(-c2ccc(O)cc2)oc2cc(O)cc(O)c12
→ 1.9&-0.3, 0.06&0.23
> COC(=O)C1=C(C)N(Cc2cccnc2)C(=O)/C1=C\c1ccccc1C(F)(F)F
→ 0.0, .
> CCOC(=O)c1csc(-c2ccc(Cl)cc2)n1
→ ., 0.38
> COC(=O)C1=C(NC(=O)c2ccc(S(=O)(=O)N3CCCCC3)cc2)CCS1
→ -0.5, 0.24
> O=C1CCC2CC1CCC2=O
→ 3.1, .
> Cc1ccc(SC(C)c2nc(-c3ccncc3)no2)cc1 (configuration not stated)
→ -3.3, 1.1
> O=C(c1ccno1)N1CCN(C2c3ccccc3-c3ccccc32)CC1
→ ., -0.035
> Cc1ccc(CNC(=S)N2CCOCC2)cc1
→ 0.0, 0.14
> N/C(=N\O)c1c(Cl)cccc1Cl
→ 0.0, .
> O=C(OCC(F)(F)C(F)F)c1ccc2ccccc2c1
→ 3.2, 0.46
> CC1CC(C)CN(C(=O)CSc2nc3cc(S(=O)(=O)N(C)C)ccc3o2)C1 (configuration not stated)
→ 0.5, .
> Cc1nn(CC(C)C)c(Cl)c1CNCCC(=O)N1CCCC1
→ 0.8, .
> O=C(CN1CCC(N2CCCCC2)CC1)NC12CC3CC(CC(C3)C1)C2
→ 1.2, -0.64
> O=C(Cn1nc(-c2ccccc2)c2ccccc2c1=O)N1CCOCC1
→ 2.3, -0.26
> Cc1ccc(NC(=O)CN2CCSC2=O)cc1
→ 1.5, .
> C/C(=N\O)c1ccc2c(c1)Cc1ccccc1-2
→ 0.7, -0.34
> Cc1cc(Cc2ccc(Cl)cc2)c(=O)[nH]n1
→ -2.6, .
> CN(C)c1cc(Nc2ccc(Cl)cc2)c2c3c(onc13)-c1ccccc1C2=O
→ -1.5, 0.41
> CC(N)c1ccc(-c2ccccc2)cc1 (configuration not stated)
→ 4.1, .
> COC(=O)C1Cc2ccccc2CN1C1CC(=O)N(c2cc(C)ccc2C)C1=O (configuration not stated)
→ 0.1, .
> CN1CCN(c2ccccc2NC(=O)C2c3ccccc3C(=O)N(C)C2c2cn(C)c3ccccc23)CC1 (configuration not stated)
→ 0.3, 0.59
> O=C1Nc2ccccc2S/C1=C/Nc1ccccc1Cl
→ ., 0.19
> COc1ccc(CN2CCN(C3=NS(=O)(=O)C(c4ccc(Cl)cc4)=C3C)CC2)c(OC)c1OC
→ 0.7, -1.4
> COc1nc(Nc2ccc3c(c2)OCO3)nc(OC)n1
→ 3.5, .
> Cc1ccccc1-n1nnnc1SCC(C)C
→ 1.7, .
> O=C(COC(=O)c1cc(O)c(O)c(O)c1)NC1CCCc2ccccc21 (configuration not stated)
→ -3.0, .
> COc1cccc(N=c2oc3cc(O)ccc3cc2C(=O)NCC2CCCO2)c1 (configuration not stated)
→ 0.0, 0.84
> Cn1nnnc1SCCOc1ccc(C#N)cc1
→ 2.5, .

Full records from above. Screens in order: BasE inh | KSHV LANA nucl
Cc1nn(CC(C)C)c(Cl)c1CNCCC(=O)N1CCCC1 reads 0.8 | .
O=c1cc(-c2ccc(O)cc2)oc2cc(O)cc(O)c12 reads 1.9&-0.3 | 0.06&0.23

Additional results:
Values run as follows: BasE inh, KSHV LANA nucl
> CC(C#N)(NC(=O)CSc1ccc(S(=O)(=O)N2CCCCC2)cn1)C1CC1 (configuration not stated)
→ 0.5, .
> Cc1cc(C(=O)N2CCN(C(c3ccccc3)c3ccccc3)CC2)n[nH]1
→ 1.2, -0.87
> O=C(OC1CCOC1=O)c1cccc(S(=O)(=O)N2CCc3ccccc32)c1 (configuration not stated)
→ 2.7, .
> CC(C)OC(=O)c1oc2c(O)c(O)ccc2c(=O)c1-c1cnn(-c2ccccc2)c1
→ 21, 0.25
> CC(C)=N/N=C1/NC(=O)C(CC(=O)Nc2cccc3ccccc23)S1 (configuration not stated)
→ 1.0, -0.95
> C=CCN1C(=O)C(CCC(=O)O)NC1=S (configuration not stated)
→ -1.5, -0.26
> Cc1ccc(C(=O)N2C(=Nc3cccc(C(F)(F)F)c3)SCC2(C)C)o1
→ 1.9, .
> COc1cccc(C(C#N)N2CCCCC2)c1O (configuration not stated)
→ 5.9, 0.19
> CCNc1c(NC(=O)c2ccccc2C)c(=O)oc2ccccc12
→ 1.0, -0.09
> CNC(=O)COC(=O)c1cccc(S(=O)(=O)N(C)c2ccc(C)cc2)c1
→ -0.7, .
> CS(=O)(=NS(=O)(=O)c1ccc(-c2ccccn2)s1)c1ccc(Cl)cc1 (configuration not stated)
→ 1.2, .
> C=CCn1c2nc3ccccc3nc2c2c(=O)n(C3CCCC3)cnc21
→ -0.1, -0.31
> CC(C)c1ccccc1N=C1SCCN1C1CCS(=O)(=O)C1 (configuration not stated)
→ -0.4, .
> CC1CCC(C(C)C)C(OC(=O)CSc2nnnn2C)C1 (configuration not stated)
→ 2.9, .
> CC(=O)N1CCN(c2ccc(OC(=O)c3ccc(Oc4cc(Cl)cc(Cl)c4)o3)cc2)CC1
→ 1.6, .

The listing continues:
molecule,BasE inh,KSHV LANA nucl
Cc1cc(C)n(C(C)CC(=O)Nc2ccc3c(c2)OCO3)n1 (configuration not stated),-1.2,-0.82
COCCn1c(C)cc(C(=O)CSc2nnc(-c3ccc4c(c3)OCO4)o2)c1C,2.4,.
Nc1nc(SCC(=O)c2cc(-c3ccccc3)no2)ncc1C(=O)O,0.1,.
O=C(NCc1nc(-c2ccc(Cl)cc2)no1)C12CC3CC(CC(C3)C1)C2,0.6,-0.38
O=c1cc(CSc2n[nH]c(=O)n2Cc2ccco2)c2ccc(O)cc2o1,-1.9,.
Cc1cc(C)nc(NC(C)(C)C(=O)O)n1,2.0,-0.11
CCn1c(SC)nnc1C1CCCN(CC(=O)NCc2ccc3c(c2)OCO3)C1 (configuration not stated),-1.0,-0.28
N=CC1=C(O)CC(c2ccccc2)CC1=O (configuration not stated),0.1,.
CC(=O)n1cc(/C=N/NC(N)=O)c2ccccc21,7.2,-0.035
Cc1nnc2sc(SCC(=O)Nc3nccs3)nn2c1=O,0.6,0.24
O=C(CC(c1ccccc1)c1ccccc1)NCCO,2.1,-0.65
COc1cc(C2CC(=O)Nc3ccccc3S2)cc(OC)c1OC (configuration not stated),0.1,0.11
COCCn1c(C)cc(/C=N/n2c(Cc3cccc4ccccc34)n[nH]c2=S)c1C,-4.8,.
CCOC(=O)CCc1nnc(-c2ccncc2)o1,1.1,.
O=C(CSc1nc2ccccc2o1)N1c2ccccc2OCC1c1ccccc1 (configuration not stated),-0.7,.
O=Cc1c2ccc[nH]c-2c2ccccc12,0.0,0.34
CSC1=C(C#N)C2(CCCCC2)C(C#N)=C(NC(=O)CSc2nncn2-c2ccccc2)N1,-1.2,.
O=C=Nc1ccc(Cl)cc1Cl,2.9,.
CCOC(=O)c1nn(-c2ccccc2)c(=O)cc1OCC,0.3,0.16
COc1ccc(C2CC(=O)c3cnc(N)nc3C2)cc1OC (configuration not stated),1.3,.
CC(C)(C)CC(=O)Nc1nnc(-c2ccccc2)s1,0.8,0.18
CCc1nnsc1C(=O)O,2.6,-0.36
NS(=O)(=O)c1ccc2c(c1)Cc1ccccc1-2,0.4,-1.6
FC(F)(F)c1ccc(NC2CCCCC2)nc1,-2.0,0.69
COc1ccccc1N1CCN(C(=O)c2ccco2)CC1,-0.8,-0.17
Cn1c(=O)sn(-c2ccccc2)c1=O,2.1,.
O=C1CCC(C2CCC(=O)N2)N1 (configuration not stated),3.7,0.16
O=C(CCN1C(=O)/C(=C/c2ccc(Cl)cc2)SC1=S)Nc1ccccc1,1.5,.
Cc1occc1C(=O)NCc1ccccc1,2.4,0.21
N=C1/C(=C2\Nc3ccccc3S2)CC(=O)N1c1ccccc1,-0.8,.
COc1ccc(C2N(c3ccc4c(c3)OCCO4)C(=O)C2(F)F)cc1OC (configuration not stated),-4.9,.
Cc1ccc(Cn2ncc3c(N4CCCC4)ncnc32)cc1,-2.4,-0.48
CCOc1ccc(S(=O)(=O)Nc2ccccc2C(F)(F)F)cc1,-1.6,-0.4
Cc1cc(C(C#N)c2ccc(Cl)cc2)c(Cl)cc1NC(=O)c1cc(I)cc(I)c1O (configuration not stated),.,1.4
C/C(N)=C(/C#N)C(=O)CSc1n[nH]c(-c2cccs2)n1,-3.0,.
Cc1ccc(Cl)cc1N1CCN(C(=O)C2CCN(S(=O)(=O)c3c(C)noc3C)CC2)CC1,2.1,-0.15
CN(C)c1ccc(/C=[N+](\[O-])C2(C)CCCCC2=O)cc1 (configuration not stated),2.5,-0.043
Cc1cc(-n2c(C)cc(CNCc3nc4ccccc4[nH]3)c2C)no1,-2.2,.
O=C1c2ccccc2NC2(C(=O)Nc3ccccc32)N1CCOc1ccccc1 (configuration not stated),1.9,0.21
COc1ccc(CNC(=O)C2CCNCC2)cc1,-2.2,-0.58
Cc1cccc(N2CCN(CC(=O)Nc3ccc4c(c3)OC(F)(F)O4)CC2)c1C,0.9,.
O=c1c(Cc2ccccc2)c(N2CCCCC2)nc2n1CCCS2,0.9,-0.64
O=S(=O)(c1cccc(C(F)(F)F)c1)N1CCNCC1,1.9,-0.95
N#Cc1ccc(COc2ncnc3sccc23)cc1,1.5,.
CC(C)c1ccc(S(=O)(=O)c2ccc(NN)cc2)cc1,0.5,.
CC1Sc2ccc(Cl)cc2C(=O)/C1=C/N(C)C (configuration not stated),0.8,.
CN(C)CCCn1c2c(c(SCC(=O)Nc3ccccc3)nc1=O)CCC2,-0.5,-0.85
O=C(NCc1ccccc1)/C(=C\c1ccccc1)NC(=O)c1ccccc1,0.8,.
O=C(O)c1nn(C2CCOC2=O)c(=O)c2ccccc12 (configuration not stated),1.5,.
COc1ccc(N2CCN(C(=O)CNC3CC3)CC2)cc1,-0.4,-0.79
Cc1cc(C(=O)COC(=O)Cn2cncn2)c(C)n1-c1ccc(F)cc1,2.1,.
CN1C(=C(C#N)C(=O)COc2ncnc3sc4c(c23)CCCC4)N(C)c2ccccc21,0.9,.
O=C(OCC(=O)N(C1CCCCC1)C1CCCCC1)c1ccc2c(c1)OCCO2,0.3,.
CCc1nnc(SCC(=O)O)n1N,1.9,.
CCc1nc2ccccc2c(C(=O)OCC(=O)Nc2ccc3c(c2)OCCCO3)c1C,-0.5,.
CCCCC(=O)Nc1cc2[nH]c(=O)[nH]c2cc1C,2.6,-0.03
Cc1nn(CCC(=O)O)c2nc(-c3cccs3)cc(C(F)(F)F)c12,2.9,.
Cc1cc(C)cc(OCC(=O)Nc2nccs2)c1,0.8,0.46
CCNc1nc(N)nc(OCCNC(C)=O)n1,1.3,-1
CC(C)Cn1c(SCC(N)=O)nc2ccccc2c1=O,0.1,-0.023

A portion of the library; count on the stated rates, not on these rows.
